Bioassay records as filed in PubChem.
GLA inh pH 4.5: qHTS Assay for Inhibitors of Human alpha-Galactosidase at pH 4.5; 230,000 tested, under 10 active; Alpha-galactosidase A (Homo sapiens), P06280; activity change, negative = inhibition, % at 105 µM; purified enzyme, 4-MU-alpha-Gal fluorescence, pH 4.5; inconclusive = small, poorly fitted or top-dose-only inhibition, or a rising curve; inactive = flat fitted curve, though single readings scatter; no compound was filed as active;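 also: 0% = full activity with enzyme and -100% = basal without enzyme; dose as in the result columns while the protocol names 77 µM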
Target sequence (P06280 whole entry, looked up): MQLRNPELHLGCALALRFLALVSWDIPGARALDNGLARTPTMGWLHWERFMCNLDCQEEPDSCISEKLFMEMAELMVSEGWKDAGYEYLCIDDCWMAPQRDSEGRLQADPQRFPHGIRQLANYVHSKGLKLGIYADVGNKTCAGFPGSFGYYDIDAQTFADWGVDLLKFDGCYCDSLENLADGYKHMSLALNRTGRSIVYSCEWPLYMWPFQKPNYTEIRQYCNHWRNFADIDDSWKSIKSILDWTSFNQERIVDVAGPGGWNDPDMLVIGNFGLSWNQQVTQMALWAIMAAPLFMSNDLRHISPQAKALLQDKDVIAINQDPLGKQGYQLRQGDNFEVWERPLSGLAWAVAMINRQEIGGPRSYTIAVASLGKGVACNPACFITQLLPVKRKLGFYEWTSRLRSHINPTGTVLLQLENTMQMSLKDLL
Rango release inh: qHTS Assay for Inhibitors of RanGTP induced Rango (Ran-regulated importin-beta cargo) - Importin beta complex dissociation; Snurportin-1 (Homo sapiens) + GTP-binding nuclear protein Ran (Homo sapiens) + Importin …; Biochemical FRET Rango-importin beta, RanGTP-induced dissociation; Potency, µM (series often up to 46.1 µM), without a hit: at the highest dose activity change, negative = inhibition; 340,000 compounds, 0.071% hits; active means falling FRET ratio curve, often poorly fitted, with flat reads before Ran was added; inconclusive means other falling curves, or compound fluorescence or quenching; inactive means flat or rising ratio curve;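 also: potency is read from the fitted curve at half-maximal effect; % of control where 0% means no effect; nearly all actives have a fitted effect of over 45% in size; -100% = wells without RanGTP and RCC1; the record marks most hits as doubtful in a second field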
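Rango/importin beta premix (0.1/0.25 uM final), PBS + 1 mM DTT + 0.02% Tween-20 + 0.1% BSA; cpd 5 min RT; FRET pre-read; + RanGTP-RCC1 (0.6 uM Ran, 2 mM GTP, 0.2 uM RCC1); 45 min RT; FRET post-read, ex 430, em 486/530 nm.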
miR-21 FLuc: qHTS Assay for Modulators of miRNAs and/orActivators of miR-21; HeLa miR-21 FLuc reporter, luciferase, 48 h; Potency, µM (highest dose often 38.3 µM), for inactives: at the top dose reporter change, positive = more light; 340,000 tested, under 10 active; active = well fitted rising curve with a large enough effect; inconclusive = small, poorly fitted or top-dose-only effect; inactive = no such curve, though single readings can be large or run the other way;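 also: % of control where 0% means no effect; miR-21 action dims this reporter so a rising signal means less miR-21 action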
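HeLa cells stably expressing CMV-driven firefly luciferase with a downstream miR-21 binding sequence, endogenously expressing miR-21, were treated with titrations (up to about 40uM final) for 48 hours at 37 degree Celsius. Luciferase luminescence was read after lysis.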
Rango complex inh: qHTS Assay for Inhibitors of Rango (Ran-regulated importin-beta cargo) - Importin beta complex formation. Potency, µM (doses to about 92.2 µM), for the others: top-dose inhibition of complex formation. Rango CFP/YFP FRET sensor + importin beta, 45 min. Importin subunit beta-1 (Homo sapiens), Q14974. AID 540263, 2011. 340,000 compounds, 0.031% hits; active = rising FRET ratio curve, often small or poorly fitted; inconclusive = mostly compound fluorescence or quenching in the first reads; inactive = flat curves in all reads;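 also: potency is read from the fitted curve at half-maximal effect; 0% = DMSO wells and 100% = buffer wells lacking importin beta; nearly all actives have a fitted effect of over 15% in size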
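FRET biosensor Rango (snurportin 1 IBB between N-terminal EYFP and C-terminal Cerulean), 50 nM in PBS/1 mM DTT/0.02% Tween-20/0.1% BSA, preincubated 5 min RT with compound; 0.125 microM importin beta added, 45 min RT, CFP/YFP FRET ratio read.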
An asterisk follows results filed as active; ? = inconclusive; . = not tested or not shown; & = joins results of further samples.

| Rango complex inh | Rango release inh | GLA inh pH 4.5 | miR-21 FLuc | mol |
| --- | --- | --- | --- | --- |
| -1.0% | 4% | -5 | -2% | O=C(Nc1cc([N+](=O)[O-])ccc1N1CCCC1)c1ccco1 |
| 11% | 34% | . | . | COc1ccccc1OCCNC(=O)CSC(=S)N1CCCC1 |
| 8.6% | -12% | -2 | -6% | Cc1nc(Nc2ccc(C(=O)O)cc2)nc(Nc2ccc(C(=O)O)cc2)c1[N+](=O)[O-] |
| 3.3% | 10% | 3 | -5% | CC(=O)N1N=C(c2cccs2)CC1c1cc2cc(C)ccc2nc1Cl (configuration not stated) |
| -0.2% | 0% | 3 | -9% | O=C(O)CCC(=O)N1CC=C(c2ccccc2)CC1 |
| -2.7% | -15% | 6 | -10% | Cc1cc(Cl)c(OCCCCN2CCOCC2)c(Br)c1 |
| -4.5% | 0% | 1 | ? | Cc1nc(Nc2nc(CSc3nc4ccccc4[nH]3)cc(=O)[nH]2)nc2ccccc12 |
| 0.6% | 25% | 6 | 0% | O=C1OCCN1CCN(CN1C(=O)CCC1=O)CN1C(=O)CCC1=O |
| 0.5% | 24% | -2 | -2% | CCOc1ccccc1N1CCN(C(=O)Nc2ccc(F)c(Cl)c2)CC1 |
| 0.8% | 13% | . | . | COc1ccc(NS(=O)(=O)c2cccc(C(=O)NNC(=O)COc3ccccc3)c2)cc1 |
| 0.2% | 19% | -1 | 4% | CCOc1ccc(CCNC(=O)COC(=O)c2cccc(OC)c2O)cc1OCC |
| -0.6% | 1% | . | . | COc1cccc(/C=C/C(=O)OCC(=O)NCc2ccc3c(c2)OCO3)c1 |
| 5.3% | 15% | . | -14% | CCOc1ccc(C(=O)NC(=S)Nc2ccccn2)cc1[N+](=O)[O-] |
| -1.9% | -4% | 4 | -9% | COCC(C)N=Cc1c(O)[nH]c2ccccc12 (configuration not stated) |
| -2.8% | -13% | -3 | 3% | O=C(c1ccc(Cl)c(S(=O)(=O)N2CCOCC2)c1)N1CCCCC1 |
| -3.5% | -1% | 4 | -38% | Cc1ccc(NC(=O)CSc2nnc3ccccn23)cc1 |
| -1.3% | 34% | -11 | -26% | COCC(=O)n1nc(-c2ccc(C)cc2)nc1NCc1ccc(F)cc1 |
| -1.8% | 21% | 3 | -12% | Cc1cccc(N=C2NC(=O)/C(=C/c3cccnc3)S2)c1 |
| 1.7% | 23% | -1 | -36% | COc1cc(CN2CCN(C(C)C)C(CCO)C2)ccc1OCc1ccccc1 (configuration not stated) |
| ? | -8% | . | . | Cc1cc(C([O-])=C(C(=S)Nc2ccccc2)[n+]2ccccc2)c(C)n1-c1ccccc1 |
| -3.6% | 26% | . | 7% | CCN(CC)C(=O)CSc1nc2c(sc(=S)n2-c2ccccc2OC)c(=O)n1-c1ccccc1 |
| 2.0% | 10% | . | . | C#CCOCCOCCOCCNc1nc(N2CCN(C(=O)[C@H](C(C)C)n3cc(CCO)nn3)CC2)nc(N2CCN(C(=O)[C@H](C)n3cc(CCCN=C(N)N)nn3)CC2)n1 |
| ? | ? | 5 | . | O=C1OCCN1C(=O)[C@H]1[C@H](c2ccccc2)C(c2cccc(Cl)c2)=NN1c1ccccc1 |
| -0.5% | 3% | 5 | -15% | Cc1ccc(OCCC(=O)OCC(=O)N2c3ccccc3CC2C)cc1 (configuration not stated) |
| 4.0% | -11% | . | . | COc1cc(N)c(Cl)cc1C(=O)OCC(=O)NC(=O)NCc1ccco1 |
| 0.9% | 27% | . | 1% | CC(=O)c1cccc(CN2CCC(n3nccc3NC(=O)CCc3ccccc3)CC2)c1 |
| 0.5% | 1% | -3 | -2% | CCn1c(CCNC(=O)c2cccs2)nnc1SCC(=O)Nc1ccc(Cl)cc1 |
| 0.0% | 1% | . | . | CCC(=O)NC(C)c1cc(Cl)c2cccnc2c1O (configuration not stated) |
| 4.1% | 1% | 2 | 0% | O=C(NCCc1nnc2ccc(NCC3CCCO3)nn12)c1ccccc1 (configuration not stated) |
| 0.2% | 6% | 0 | -2% | O=C1CC(C(=O)Nc2cccc(Cl)c2)n2ncnc2N1 (configuration not stated) |
| -1.6% | -10% | . | . | CCOc1ccc(NC(=O)CN(C)C(=O)C2COc3ccccc3O2)cc1OCC (configuration not stated) |
| -0.7% | 8% | . | -7% | COc1ccccc1CNCC(=O)Nc1ccc(C#N)cc1 |
| 1.3% | 14% | -9 | -2% | O=C(/C=C/C(=O)N1CCc2ccccc2C1)N1CCc2ccccc2C1 |
| 1.4% | 15% | -3 | -2% | O=C(Nc1cccc2ccccc12)C1CCN(C(=O)Cc2ccccc2)CC1 |
| 5.3% | 0% | -3 | -5% | CCOC(=O)c1ccc(N2C(=O)CC(C(=O)OC)=C2C)cc1 |
| -0.8% | 14% | -3 | 2% | CC(C)c1cccc(C(C)C)c1NC(=S)Nc1cccc(Cl)c1 |
| 0.0% | 3% | -7 | -2% | Cc1cccc(C=Nc2ccc3c4c(cccc24)CC3)c1O |
| 1.0% | 3% | . | . | O=[N+]([O-])c1ccc(N2CCOCC2)c([N+](=O)[O-])c1 |
| 4.0% | -5% | -5 | -18% | O=C(Nc1ccc(Cl)cc1)c1csc(-c2ccncc2)n1 |
| 3.4% | 8% | . | 0% | CC(NS(=O)(=O)c1ccc2c(c1)oc(=O)n2C)c1ccccc1 (configuration not stated) |
| -1.0% | -12% | -1 | -4% | CN(C)CCCNC(=O)c1cc(C(=O)C2CCCCC2)c[nH]1 |
| 0.8% | 0% | -20 | -1% | COc1ccc(Cn2c(SCc3cc(C)ccc3C)nc3cc(OC)c(OC)cc3c2=N)cc1 |
| -2.2% | 15% | 2&-2 | 6% | CCN1C(=O)N(C)[C@@H](c2ccccc2)C(C(=O)OC)=C1C |
| 1.2% | 0% | -5 | 14% | CCN(CC)CCOc1ccc2c(c1)C(=NO)c1cc(OCCN(CC)CC)ccc1-2 |
| ? | ? | -13 | 17% | CCN1C=C(Cc2cccs2)C2=C(C1)C(c1cccs1)C(C#N)=C(N)O2 (configuration not stated) |
| -0.9% | -7% | -2 | -3% | S=c1sc(SCCOc2ccccc2)nn1-c1ccccc1 |
| -4.1% | -19% | -2 | 16% | CCNc1nc(NCC)nc(N/N=C/c2cc(OC)c(OC)c(OC)c2)n1 |
| 0.0% | -3% | . | -45% | CCC(=O)NCCc1nc2cc(NC(=O)COc3ccccc3)ccc2n1C |
| -0.5% | 18% | . | . | Cc1cc(CNC(=O)COC(=O)c2ccc(Cl)c(N)c2)cc(C)c1O |
| 0.1% | 2% | 5 | -4% | CCOc1ccc(CNC(=O)CCCOc2cc(=O)n(C)c3ccccc23)cc1 |
| 0.6% | 23% | ? | -5% | CCN(CC)C(=O)Oc1c(Cl)cc(Cl)c2cccnc12 |
| -0.9% | -13% | . | -16% | COc1ccc(NC(=O)c2cc(C)no2)cc1Cl |
| 2.3% | 11% | 2 | -6% | O=C(O)C1OC2OC3(CCCCC3)OC2C2OC3(CCCCC3)OC12 (configuration not stated) |
| 1.1% | 5% | . | . | Cc1cccc(NC(=O)c2nc[nH]c2C(=O)N2CCN(c3ccccc3)CC2)c1 |
| -0.9% | -4% | -5 | -4% | CCOc1ccc(C(=O)NCC(=O)OCC(=O)N2CCC(C)CC2)cc1 |
| -1.9% | 25% | -1 | -4% | Cc1ccc(S(=O)(=O)N2CCN(C(=O)c3ccccc3)C2)cc1[N+](=O)[O-] |
| -0.6% | -3% | . | . | C=C1C(=O)O[C@H]2C[C@H]1[C@@H](OC(C)=O)C/C(C)=C/CC/C(C)=C\CC[C@]2(C)O |
| 2.9% | 1% | 1&2 | 5% | CCC1=C(OC(=O)N(CC)CC)N2C(=O)OC(=NCC(=O)OC)[C@]2(C)[C@H]2C1=CC[C@H]1C(=O)N(CC(=O)OC)C(=O)[C@H]12 |
| -1.2% | 7% | 3 | 13% | COC(CNC(=O)c1cc(Sc2nnc(C)s2)nc2ccccc12)OC |
| -1.4% | 9% | . | . | CCCCNS(=O)(=O)c1ccc(Br)cc1N1CCC[C@H]1CO |

Later entries.
| Rango complex inh | Rango release inh | GLA inh pH 4.5 | miR-21 FLuc | mol |
| --- | --- | --- | --- | --- |
| 11% | 24% | 8 | 1% | CCN(CC)S(=O)(=O)c1ccc(S(=O)(=O)N2CCCC2C(=O)O)cc1 (configuration not stated) |
| -4.4% | 14% | -4 | -13% | Cc1ccc(N2CCN(c3ccc(C)cc3)C(CC(=O)O)C2=O)cc1 (configuration not stated) |
| 5.1% | 10% | 1 | 1% | CCC(=O)Nc1sc(C(=O)OC)c(C)c1C(=O)OC |
| 0.2% | -4% | 5 | -45% | Fc1cc(F)c2nc(N3CCOCC3)sc2c1 |
| -1.4% | -12% | . | . | Cc1cnc(C(=O)OCC(=O)Nc2ccccc2[N+](=O)[O-])cn1 |
| 1.0% | 9% | -7 | -6% | Cn1c(SCC(=O)NCc2cccs2)nnc1-c1ccc(O)cc1 |
| -2.0% | -7% | -8 | -3% | COc1cc(/C=N/NC(=O)c2cccc([N+](=O)[O-])c2)ccc1OC(=O)c1ccco1 |
| -4.3% | -8% | 4 | 13% | Cc1cccc(C(=O)N2CCN(c3ccc(C(F)(F)F)cn3)CC2)c1C |
| -1.5% | 6% | 4 | 7% | CN(Cc1ccccc1)C(=O)N1CCOCC1 |
| -0.1% | 5% | -4 | 18% | CCOC(=O)c1ccc(NC(=O)CCc2nc(-c3ccccc3Cl)no2)cc1 |
| 0.1% | 1% | -1 | -14% | c1ccc(Cc2nnc(-c3ccccc3)o2)cc1 |
| 0.9% | -14% | -5 | -4% | CC(C)Oc1ccc(Cc2c(O)nc(NCCCN(C)C)[nH]c2=O)cc1 |
| -0.1% | -22% | . | 25% | O=C(OCc1ccc(Br)cc1)c1cnc(Cl)c(Cl)c1 |
| -0.2% | 15% | 3 | -3% | CCCCCCCC(=O)Nc1ccc(S(=O)(=O)Nc2nccs2)cc1 |
| 3.0% | -9% | 6 | -59% | O=C(Nc1ccccc1)c1ccc(-c2ccc(F)cc2)s1 |
| 2.6% | 7% | 0 | -15% | COc1ccc(-c2nc(C#N)c(N3CCOCC3)o2)cc1OC |
| 3.2% | -8% | 1 | 8% | O=C(COc1cccc2cccnc12)N/N=C/c1cccn1-c1ccc(F)cc1 |
| -3.9% | 8% | 13 | -20% | Cc1nn(-c2ccccc2)c(C)c1CCC(=O)O |
| ? | ? | . | -3% | COc1ccc(N2CCN(CCCNC(=O)Cn3c(=O)c4cccn4c4cccnc43)CC2)cc1 |
| -1.5% | 6% | 0 | 30% | COC(=O)CN(c1cc(Cl)ccc1OC)S(=O)(=O)c1ccc(C)cc1 |
| -0.8% | -2% | . | . | Nc1nc(F)nc2c1ncn2[C@@H]1O[C@H](CO)[C@@H](O)[C@H]1O |
| 9.1% | -1% | ? | -16% | CCCc1cc(=O)n2c([nH]c3ccccc32)c1C#N |
| -2.0% | 1% | . | 0% | CCCCOc1ccc(/C=N/Nc2cc(N3CCOCC3)nc(C)n2)cc1 |
| 0.2% | -12% | -10 | -14% | Cc1ccc(CSc2nnc(-c3ccc(NS(=O)(=O)c4ccccc4)cc3)o2)cc1 |
| -0.5% | -7% | -4 | -4% | O=C(NC1CCN(Cc2ccccc2)CC1)c1ccc2c(c1)[nH]c(=O)n2Cc1ccc(F)cc1 |
| 0.0% | -2% | -1 | 1% | O=C(NNC(=O)C1CCN(c2ncccn2)CC1)c1ccncc1 |

Only part of the results is shown (hit frequency here may not be typical).
